B2AR ag: human beta-2 adrenergic receptor agonism by FAP; Am2.2-beta2AR cells, FAP receptor internalization, flow cytometry; reference of the scale not given here; 340,000 tested, 0.43% active; P07550; response, % (test concentration not listed);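 active = response above a set limit, near 3 SD of response in nonfluorescent compounds, cut at about 42% in these data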;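 note: stock transfer was 100 nL into about 11 µL; a reference agonist was the positive control; negative values mostly stem from fluorescent compounds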
Target sequence (P07550 whole entry, looked up): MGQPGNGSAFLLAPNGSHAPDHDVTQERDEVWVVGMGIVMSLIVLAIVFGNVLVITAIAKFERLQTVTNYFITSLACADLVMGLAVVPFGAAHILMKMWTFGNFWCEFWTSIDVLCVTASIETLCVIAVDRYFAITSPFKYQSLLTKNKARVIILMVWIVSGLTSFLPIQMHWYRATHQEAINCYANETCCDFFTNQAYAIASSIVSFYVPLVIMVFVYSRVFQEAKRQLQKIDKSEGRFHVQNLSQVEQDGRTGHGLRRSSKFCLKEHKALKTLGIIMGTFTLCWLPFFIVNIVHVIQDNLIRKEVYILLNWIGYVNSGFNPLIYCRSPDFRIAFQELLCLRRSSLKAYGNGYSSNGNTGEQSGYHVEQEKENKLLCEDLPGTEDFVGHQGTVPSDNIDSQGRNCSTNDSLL
Vif A3G: HIV-1 Vif–A3G interaction blockers – biochemical, TR-FRET, GST-Vif 1-94, biotin-A3G peptide, dose response retest, primary screen (AID 1117319) | 260,000 tested, 0.57% active | TR-FRET GST-Vif / biotin-A3G peptide binding; higher % means a stronger effect; test concentration not given here; strong numbers were not always called active | inhibition, %; hits with a dose series show IC50 in µM;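 active = above the screen mean plus three standard deviations and confirmed in dose response; inconclusive = results disagree or hit not tested in dose response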;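 note: Vif residues 1-94 fused to GST binding biotinylated APOBEC3G peptide 110-148; 0% = full assay without inhibitor and 100% = GST in place of GST-Vif; retest series ran down from 100 µM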
ALR H2O2 inh: inhibitors of human sulfhydryl oxidase ALR | AID 485317 | purified ALR, DTT oxidation, H2O2 HRP-luminol luminescence | inhibition, % (no concentration beside the values) | 290,000 tested, 3.8% active | P55789;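 active = mean and each replicate at 75% or more; inconclusive = only one of the two met; inactive = neither met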;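 note: stock transfer was 7.5 nL into about 7.5 µL; 0% = neutral wells and 100% = wells with inactivated enzyme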
Target sequence (P55789 whole entry, looked up): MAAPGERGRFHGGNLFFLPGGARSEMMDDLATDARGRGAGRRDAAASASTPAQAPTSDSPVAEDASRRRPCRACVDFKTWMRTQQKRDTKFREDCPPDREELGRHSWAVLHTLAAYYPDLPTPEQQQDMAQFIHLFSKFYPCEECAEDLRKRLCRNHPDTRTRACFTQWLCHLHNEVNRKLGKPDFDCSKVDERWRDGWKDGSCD
RanGTP-Impb inh: disruptors of Ran-importin-beta complex formation – biochemical, FRET, CFP-Ran, YFP-importin-beta, homogeneous, primary screen. cell-free CFP-Ran/YFP-importin-beta FRET ratio. inhibition, % (concentration not given with the values). 300,000 tested, 1.1% active. AID 2216;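 active = most replicates above 15%; inconclusive = exactly half above 15%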;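 note: 0% = DMSO wells and 100% = Ran loaded with GDP instead of GTP; wells of about 40 µL received 100 nL stock; the first replicate is given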
HNF4A DNA FP: change in binding of human HNF4 alpha to DNA | activity change, % at 10 µM | P41235 | HNF4a-FITC DNA binding, fluorescence polarization, 1 h | 360,000 tested, 0.3% active; in the data active = activity change above about 30%, passing the limit was not always enough;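 note: controls were the assay level and a saturating level of protein; the project sought stronger binding though the title names inhibitors; some compounds called inactive have numbers as strong as hits; positive values seem to mean higher polarization but the record does not say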
LANA-H2B inh: blocks KSHV LANA binding to histone H2A/H2B | Q9QR71 | cell-free LANA-H2A/H2B peptide, fluorescence polarization | inhibition, % (concentration not given with the values) | 320,000 tested, 0.6% active | AID 2629; in the data active = inhibition mostly above about 10%, no sharp cut-off; inactive = mostly below about 6.7%;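 note: stock transfer was 7.5 nL into about 10 µL; 0% = median of vehicle wells and 100% = median of positive control wells; one replicate is shown; the record names a cut of 25% in any replicate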
Calb FLC: affects C. albicans growth with fluconazole. C. albicans CaCi-2 (fluconazole-resistant clinical isolate) + fluconazole, Alamar Blue growth, 48 h. growth inhibition, % (test concentration not listed). 300,000 tested, 0.57% active;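 active = most replicates above 75%; inconclusive = exactly half above 75%; inactive = most below 75%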;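 note: all wells also contain fluconazole at 8 µg/ml as a sub-toxic cotreatment; 0% = median of DMSO wells and 100% = median of geldanamycin control wells; wells of about 8 µL received 7.5 nL stock; the first replicate is given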
Numbers without * were called inactive; ? = inconclusive; nt = no result given; & = joins results of further samples.

smiles	Calb FLC	RanGTP-Impb inh	B2AR ag	ALR H2O2 inh	Vif A3G	HNF4A DNA FP	LANA-H2B inh
CCN(CC(=O)Nc1c(F)cccc1F)C(=O)CNC(=O)c1cccc(C)c1	-6	-2.7	-10	-2	nt	0.3	2.3
Cc1ccccc1-c1ccc(Nc2ccc(C(=O)N3CCOCC3)cc2)nn1	3	3.6	3	-14	3%	2.1	2.1
Cc1ccccc1Cn1c(=O)n(CCCC(=O)NCc2ccco2)c(=O)c2sccc21	-4	-2.5	6	1	-18%	4.2	-2.6
CCOc1ccccc1NC(=O)C(=O)/C=C(\O)c1cc(OC)ccc1OC	40	-3.4	0	-4	?	2.5	-1.9
COc1ccc(Cn2nnnc2C(C(C)C)N(Cc2ccco2)Cc2cccs2)cc1 (stereo not given)	-3	0.5	2	6	27%	-2.9	1.5
COC(=O)CC(NC(=O)Nc1ccc(C)cc1)c1cccc([N+](=O)[O-])c1 (stereo not given)	0	?	8	-4	9%	-1.0	2.5
CC1CCCN(c2nc3ccccc3nc2C(C#N)S(=O)(=O)c2ccccc2)C1 (stereo not given)	7	-3.2	20	0	11%	-1.5	11
CC(=O)c1cccc(N(C(=O)c2ccccn2)C(C(=O)NC2CCCCC2)c2cccs2)c1 (stereo not given)	-4	-2.0	-9	-9	6%	-2.1	7.0
CCCCN(C(=O)/C=C/c1ccco1)c1c(N)n(CCC)c(=O)[nH]c1=O	4	1.0	-2	nt	11%	-5.2	1.5
CCc1nnc(NS(=O)(=O)c2ccc(N=Cc3c(C)[nH]n(-c4ccc(C)cc4)c3=O)cc2)s1	14	-4.5	-3	63	7%	-4.8	0.7
Cc1ccc(C)c(OC(=O)c2cncc(Br)c2)c1	98*	8.4	-4	4	-1%	-2.1	-0.4
CCOC(=O)C1=C(CC)Nc2ccccc2N=C1NC(=O)c1ccc(S(=O)(=O)N2CCOCC2)cc1	14	-3.9	2	-15	-4%	0.2	-5.8
CN(CC(=O)NC(=O)NCc1ccco1)Cc1nc2ccccc2c(=O)[nH]1	-1	-1.1	4	nt	24%	-11	7.5
Cn1c(=O)[nH]c2c(Cl)nccc21	-1	?	0	0	-2%	-2.0	7.7
Cc1c(NC(=O)CSc2nccn2C)c(=O)n(-c2ccccc2)n1C	4	2.6	10	2	28%	0.4	-3.1
Cc1cccc(NC(=S)NNC(=O)Cc2ccccc2)c1	24	-0.7	2	10	17%	0.3	-1.2
CCCCN(Cc1ccccc1)C(=O)C1CCCN(S(=O)(=O)c2cnc[nH]2)C1 (stereo not given)	-5	-2.8	11	-2	-5%	2.7	-0.4
CC(=O)NCC(c1cccs1)S(=O)(=O)c1ccc(F)cc1 (stereo not given)	25	-2.6	0	1	nt	5.5	-2.8
Oc1ccccc1N1CCN(C(=S)NCc2ccccc2)CC1	-3	-2.8	-12	96*	11%	-3.8	18*
CC(=O)NCCNC(=O)c1ccc(-n2c(C)ccc2C)cc1	-23	-0.5	-5	-5	4%	-2.7	-1.6
CCn1nc(C)c(/C=N/NC(=S)Nc2ccc(Cl)cc2Cl)c1C	13	?	-12	-3	25%	1.5	-1.3
Cc1ccccc1Cn1cc(NC(=O)c2nn(C)cc2Cl)cn1	0	-1.4	2	nt	-2%	2.1	nt
CCOc1cc(NC(=S)NCc2ccco2)c(OCC)cc1NC(=O)CC	-5	-1.2	-5	-13	9%	-1.5	-6.6
CN(CC(=O)Nc1ccc(F)c(F)c1F)C(=O)c1ccc(N2CCCC2=O)cc1	nt	nt	-7	1	0%	-3.5	1.2
CC(OC(=O)CC1CCCC1)C(=O)Nc1ccc(S(N)(=O)=O)cc1 (stereo not given)	-3	?	3	-1	-7%	2.4	-5.8

Of the compounds above, two contain an aryl methoxy group:
smiles	Calb FLC	RanGTP-Impb inh	B2AR ag	ALR H2O2 inh	Vif A3G	HNF4A DNA FP	LANA-H2B inh
CCOc1ccccc1NC(=O)C(=O)/C=C(\O)c1cc(OC)ccc1OC	40	-3.4	0	-4	?	2.5	-1.9
COc1ccc(Cn2nnnc2C(C(C)C)N(Cc2ccco2)Cc2cccs2)cc1 (stereo not given)	-3	0.5	2	6	27%	-2.9	1.5

Remaining list, next part
smiles	Calb FLC	RanGTP-Impb inh	B2AR ag	ALR H2O2 inh	Vif A3G	HNF4A DNA FP	LANA-H2B inh
c1cncc(Nc2nc(-c3ccncc3)cs2)c1	15	-5.1	-8	19	0%	-0.1	-2.6
Cc1nnc(SCc2cc([N+](=O)[O-])cc3c2OCOC3)[nH]c1=O	-1	1.7	6	-8	nt	-2.6	-6.8
CC1=C(C(=O)c2ccccc2)C(c2ccc(OC(F)F)cc2)NC(=S)N1 (stereo not given)	-3	-1.4	-15	1	-10%	2.1	-0.5
Cc1ccc(SCC(=O)Nc2ccc(N3CCOCC3)cc2)cc1	0	-3.3	-12	-38	-4%	-0.7	11
Cc1ccc(-c2nc(Cl)nc3ccccc23)cc1	5	-2.4	-6	-28	3%	-4.8	2.7
O=C(CCCOc1ccc(Cl)cc1)Nc1cccc(C(=O)O)c1	20	-1.5	3	-5	-8%	4.7	-0.6
O=C(CCCOc1ccc(Cl)cc1Cl)NCc1ccccn1	-7	0.8	-1	-6	6%	1.4	-3.3
CC(C)c1cccc(C(C)C)c1NC(=O)CCl	-31	1.4	5	-3	nt	-3.8	0.9
O=C(Cc1ccccc1)Nc1ccc(NC(=O)c2cccs2)cc1	12	-0.9	-7	-1	nt	-0.1	-1.2
CCOc1cc(CNCCO)cc(Br)c1OCc1ccc(Cl)cc1Cl	-3	2.3	-14	-16	2%&2%	-0.1	0.2
CCC(=O)C1CCCN(C(=O)c2cccc(OC3CCN(S(C)(=O)=O)CC3)c2)C1 (stereo not given)	-9	-2.1	-8	10	nt	-3.7	2.0
Cc1cc(=O)[nH]c(N/N=C/c2cccc(Br)c2)n1	18	-2.0	8	23	nt	5.3	0.6
CCCCc1cc(=O)oc2cc(C)cc(O)c12	50	1.5	4	nt	4%	1.3	5.5
CN(C)c1oc(-c2ccccc2[N+](=O)[O-])nc1C#N	-7	1.8	1	-11	1%	-1.2	3.1
N#C/C(=C(/O)c1ccc(Cl)c([N+](=O)[O-])c1)c1nc2ccccc2[nH]1	3	4.1	4	-3	-12%	3.6	3.9
CCn1ncc(C2=NOC(C(=O)NCc3ccccc3)C2)c1C (stereo not given)	2	-0.3	13	-31	0%	-0.7	0.1
COc1ccc(NC(=O)CSc2nc3ccccc3c(=O)n2C)cc1	2	-4.6	2	-14	-5%	1.3	-1.8
CN(C(=O)COC(=O)CNS(=O)(=O)/C=C/c1ccccc1)C1CCS(=O)(=O)C1 (stereo not given)	-10	-6.9	1	-9	1%	2.4	-1.7
CCC1(C)Cc2c(sc3nc4n(c(=O)c23)CCS4)CO1 (stereo not given)	-14	0.5	-13	-2	1%	-0.7	1.0
COc1ccc(CNC(=O)COC(=O)c2[nH]c(C)c(C(C)=O)c2C)cc1OC	nt	nt	0	nt	7%	2.4	3.4
O=C1NC[C@H](Cc2ccccc2)N(CC2CCN(CCC3CCCC3)CC2)C1=O	nt	nt	3	nt	-4%	2.8	nt
Fc1ccccc1CSc1nnc(Cn2cnc3ccccc32)n1-c1ccccc1	25	0.2	-18	-4	4%	0.5	-7.6
CCOC(=O)c1sc(NC(=O)c2ccc3nc[nH]c3c2)nc1C	3	-5.2	-6	0	nt	0.4	-1.5
O=C(NC(=S)Nc1cccc2cnccc12)c1ccccc1	-2	-0.1	-10	-24	0%	5.3	-1.9
CCOc1ccc2nc(N3CCC(C(=O)N4CCN(C5CCCCC5)CC4)CC3)sc2c1	-1	-0.2	-2	-17	4%&0%	-2.1	-1.4

Record cards, from the list above. Values in the order: Calb FLC, RanGTP-Impb inh, B2AR ag, ALR H2O2 inh, Vif A3G, HNF4A DNA FP, LANA-H2B inh
Shown for CCC1(C)Cc2c(sc3nc4n(c(=O)c23)CCS4)CO1 (stereo not given) → -14, 0.5, -13, -2, 1%, -0.7, 1.0
Shown for Cc1ccccc1Cn1c(=O)n(CCCC(=O)NCc2ccco2)c(=O)c2sccc21 → -4, -2.5, 6, 1, -18%, 4.2, -2.6

Going on with the list:
smiles	Calb FLC	RanGTP-Impb inh	B2AR ag	ALR H2O2 inh	Vif A3G	HNF4A DNA FP	LANA-H2B inh
Cc1ccc(-n2nnnc2SCC(=O)N2CCc3ccccc3C2)cc1	-26	-3.8	-25	nt	14%	4.9	nt
O=C(Nc1cccnc1)c1ccc([N+](=O)[O-])cc1Cl	22	2.0	-2	-13	14%	-0.3	3.0
O=C(NC1CCCCCC1)C(=O)NC1CCCC1	-1	1.6	-17	-4	-3%	-0.7	3.2
Fc1ccc(-n2ncc3c(SCc4cccnc4)ncnc32)cc1	47	1.5	-2	71	-10%	2.2	3.2
CCN(CC)c1nc(C)c(C(=S)Nc2cc([N+](=O)[O-])ccc2Cl)s1	-7	1.2	-32	24	-12%	47*	-4.2
Cc1cc(C(=O)NC2CCCC(C)C2C)c2ccccc2n1 (stereo not given)	5	-2.1	4	0	5%	-4.0	4.0
CC(=O)CCc1oc2ccc(C)cc2c1Cc1ccccc1	0	6.2	6	nt	4%	9.8	-2.8
COC(=O)[C@@]1(C)CC[C@]2(C)CC[C@@]3(C)C(=CC(=O)C4[C@@]5(C)CC[C@H](O)C(C)(C)[C@@H]5CC[C@]43C)[C@H]2C1 (stereo not given in full)	-4	0.9	2	nt	nt	2.1	-2.6
COc1ccccc1NC(=O)N1CCCC(c2nc3c(nnn3Cc3ccc(C)cc3)c(=O)[nH]2)C1 (stereo not given)	47	-2.4	5	nt	26%&-2%	1.8	nt
Cc1ccccc1NC(=O)Cc1nc(COC(=O)CNS(=O)(=O)c2cccc(Br)c2)cs1	-6	13	14	-16	nt	2.1	-0.3
Cc1cc(C)c2c(N)c(C(=O)Nc3ccccc3F)sc2n1	-6	2.3	-16	-2	nt	-2.8	-0.6
CCN(CC)CCn1c2c(c(SCC(=O)Nc3cc(C)cc(C)c3)nc1=O)CCC2	3	-0.9	5	3	0%	2.6	-1.7
CCC(NC(=O)NC1=NCCS1)(C(F)(F)F)C(F)(F)F	-5	1.6	-5	-18	-6%	-1.4	-4.2
COc1ccccc1CC(=O)Nc1cccc(C)n1	-3	0.0	-2	-15	6%	-1.8	1.5
O=C1c2cccc3cccc(c23)C(=O)N1Nc1ccccc1	-18	1.0	17	-8	nt	-2.0	-7.0
COc1ccc(C(=O)N2CCNC(=O)C2CC(=O)Nc2cc(Cl)ccc2OC)cc1 (stereo not given)	-1	0.6	0	2	5%	-0.5	3.4
CCOC(=O)CC1CCCCN1Cc1cn(C)nc1-c1ccc2c(c1)OCCO2 (stereo not given)	-9	1.6	-7	-4	-7%	1.5	-4.1
O=C1C(Cl)=C(N2CCCCC2)C(=O)N1Cc1ccccc1	-18	-2.5	-14	2	nt	1.1	-9.2
Cc1ccc(C(=O)N2CCSCC2)cc1	-12	-0.7	12	-2	-1%	4.4	0.4
O=C(c1csc2c1CCCC2)N1CCN(c2ccccc2)CC1	8	4.8	-3	33	6%	2.6	-3.3
CCN(CC)c1cnn(C/C(=N\OC)c2ccc(Cl)cc2)c(=O)c1Br	-1	0.3	-5	-16	10%	1.8	-0.3
Cc1ccc(Nc2nc(CSc3nnc(-c4cccs4)o3)cs2)cc1	10	-0.3	4	54	-1%&-2%	2.8	-2.9
